Source: PubChem (several laboratories)
YopH PTP inh: blocks Yersinia enterocolitica YopH tyrosine phosphatase | fluorescence Ex485/Em525 | inhibition, %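 (about 10 µM by stock and volumes)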 | 0.16% of 140,000 active;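 active = inhibition of 50% or more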;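 also: controls were vehicle for no effect and minimum signal wells for full effect; inactives centre near -20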
Arbovirus anti: antivirals against arbovirus infection. arbovirus infection cell-based antiviral screen. inhibition, % at 10 µM. 0.37% of 200,000 active. AID 1251;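 active = inhibition from about 30%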;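 also: bluetongue infection of BSR cells; cell survival read as ATP light after 72 h; 0% = infected wells without compound and 100% = uninfected wells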
Mtb betalactam: beta-lactam sensitization of Mtb H37Rv. M. tuberculosis H37Rv growth with meropenem, percent inhibition; hits of this screen are not shown here. AID 434955. inhibition, % at 25 µM. 0.27% of 330,000 active;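 active = about 74% or more and at least 40 points above the plate without the antibiotic, then above 30% in a dose series; inconclusive = first-round hits that could not be retested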;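 also: growth measured after seven days incubation then overnight dye step; 0% = bacteria only wells and 100% = bacteria with antibiotic; twin plates without the antibiotic show which effects depend on it; some results filed as inactive read as strong as hits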
Mtb growth: M. tuberculosis H37Rv growth inhibitors, H37Rv strain (AID 1626); M. tuberculosis H37Rv growth inhibition; higher % means a stronger effect; inhibition, % at 10 µM, or IC50 in µM where a hit was titrated; 0.95% of 220,000 active;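 active = confirmed in a dose series; inconclusive = inhibition above 80% but not taken into the dose series; inactive = below 80% or under 30% at every dose of the series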;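 also: bacteria incubated seven days before Alamar blue readout; 0% = bacteria only wells and 100% = bacteria with antibiotic wells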
RecA splice inh: blocks M. tuberculosis RecA intein splicing; 0.75% of 290,000 active; cell-free RecA intein splicing, fluorescence; P9WHJ3; inhibition, %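 (about 9 µM by stock and volumes)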; in the data active = inhibition above about 30%; inconclusive = no clear call, values can overlap the other calls;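 also: 0% = vehicle wells and 100% = reference inhibitor control wells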
Target sequence (P9WHJ3 whole entry, looked up, canonical isoform): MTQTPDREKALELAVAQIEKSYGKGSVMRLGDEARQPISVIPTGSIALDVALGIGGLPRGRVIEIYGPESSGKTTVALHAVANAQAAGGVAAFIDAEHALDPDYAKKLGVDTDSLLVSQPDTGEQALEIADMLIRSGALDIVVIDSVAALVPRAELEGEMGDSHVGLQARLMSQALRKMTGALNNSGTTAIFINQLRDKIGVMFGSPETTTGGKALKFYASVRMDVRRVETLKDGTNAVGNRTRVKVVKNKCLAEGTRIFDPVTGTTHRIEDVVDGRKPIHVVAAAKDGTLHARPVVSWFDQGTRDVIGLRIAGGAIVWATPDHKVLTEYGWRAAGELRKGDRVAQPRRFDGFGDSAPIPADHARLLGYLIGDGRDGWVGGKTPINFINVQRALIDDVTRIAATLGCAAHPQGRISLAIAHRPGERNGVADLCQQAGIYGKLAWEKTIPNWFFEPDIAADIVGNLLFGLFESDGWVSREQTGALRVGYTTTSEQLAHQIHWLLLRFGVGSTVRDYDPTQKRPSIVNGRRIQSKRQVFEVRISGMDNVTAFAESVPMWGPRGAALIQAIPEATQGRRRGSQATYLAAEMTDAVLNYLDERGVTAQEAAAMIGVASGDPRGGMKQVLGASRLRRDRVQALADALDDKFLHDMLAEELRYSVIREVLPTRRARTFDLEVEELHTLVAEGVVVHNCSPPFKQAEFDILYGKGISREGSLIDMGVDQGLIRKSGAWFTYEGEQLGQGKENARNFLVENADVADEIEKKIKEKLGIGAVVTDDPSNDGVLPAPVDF
Arbovirus anti repeat: second read-out of Arbovirus anti, no call of its own (marks repeat the call); inhibition, %; measured here: 10K subset replicate screen; many hits read low in the repeat;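 first of two repeat runs on a subset; 0% = infected and 100% = uninfected wells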
Active calls of the source: *. The list is partial. The share of hits here may be higher or lower than overall.

COc1ccc(OC)c(NC(=O)c2ccc(OC3CSC3)cc2)c1 was read as Arbovirus anti -11.3, Mtb betalactam 69.1, Mtb growth 21.2% and RecA splice inh 0.3.
Screening COc1ccc(N2CC2c2ccncc2)cc1 (stereo unspecified) returned Arbovirus anti 4.7, Mtb betalactam 0.9, Mtb growth 39.4% and RecA splice inh 3.0.
Cc1onc(-c2ccccc2)c1C(=O)Nc1ccc(S(=O)(=O)NC(C)(C)C)cc1 was read as Arbovirus anti 3.2, Mtb betalactam -4.1, Mtb growth -3.7% and RecA splice inh -4.5.
O=C(/C=C/c1ccc(Br)cc1)N1CCN(c2cccc(C(F)(F)F)c2)CC1 was read as YopH PTP inh -17.1, Arbovirus anti -16.8, Mtb betalactam 90.9, Mtb growth 6.5% and RecA splice inh 4.5.
`O=C(Cc1cc2ccccc2o1)NCc1ccc(F)cc1` gave Mtb betalactam 3.1 and RecA splice inh 2.8.
O=S(=O)(c1ccc(Cl)cc1)N1CCSC1c1ccco1 (stereo unspecified) was read as YopH PTP inh -11.7, Arbovirus anti 2.8, Mtb betalactam -10.1, Mtb growth -5.0% and RecA splice inh 5.1.
`COc1cc(OCC(=O)NC(C)C)cc2c1C(=O)O[C@@H](C)CCCC(=O)CCCCC2` gave Mtb betalactam inconclusive and RecA splice inh 1.4.
Screening CC(C)(C)c1ccc(S(=O)(=O)NCC(=O)Nc2sc3c(c2C(N)=O)CCCC3)cc1 returned YopH PTP inh -9.5, Arbovirus anti -8.8, Mtb betalactam -5.3, Mtb growth 6.8% and RecA splice inh 3.7.
`O=C(COC(=O)CN1C(=O)c2ccccc2C1=O)Nc1ncc(Cl)cc1Cl` gave YopH PTP inh -36.9, Arbovirus anti 4.0, Mtb betalactam -3.5 and RecA splice inh 2.2.
For COC(=O)NNC(=O)c1ccc(C)cc1 the results were YopH PTP inh -15.4, Arbovirus anti 8.4, Mtb betalactam -3.1, Mtb growth -5.4% and RecA splice inh 0.2.
`COc1ccccc1N1CCN(C2CCCN(C(=O)CCc3cnccn3)C2)CC1` (stereo unspecified) gave Mtb betalactam -9.3 and RecA splice inh 0.0.
COc1ccc(Nc2ncnc3scc(-c4ccc(OC)cc4)c23)cc1 was read as YopH PTP inh -34.8, Arbovirus anti -7.6, Mtb betalactam 5.4, Mtb growth 7.1% and RecA splice inh 1.6.

In the list so far, these contain fluorine:
O=C(/C=C/c1ccc(Br)cc1)N1CCN(c2cccc(C(F)(F)F)c2)CC1 was read as YopH PTP inh -17.1, Arbovirus anti -16.8, Mtb betalactam 90.9, Mtb growth 6.5% and RecA splice inh 4.5.
`O=C(Cc1cc2ccccc2o1)NCc1ccc(F)cc1` gave Mtb betalactam 3.1 and RecA splice inh 2.8.

2 records drawn at random from those above:
For COC(=O)NNC(=O)c1ccc(C)cc1 the results were YopH PTP inh -15.4, Arbovirus anti 8.4, Mtb betalactam -3.1, Mtb growth -5.4% and RecA splice inh 0.2.
Screening COc1ccc(N2CC2c2ccncc2)cc1 (stereo unspecified) returned Arbovirus anti 4.7, Mtb betalactam 0.9, Mtb growth 39.4% and RecA splice inh 3.0.

Continuation:
Screening O=C(Nc1ccccc1)c1ccc(Cn2cc(C(F)(F)F)ccc2=O)cc1 returned YopH PTP inh -31.3, Arbovirus anti -3.5, Mtb betalactam -25.5, Mtb growth -9.7% and RecA splice inh 1.3.
Cc1ccc(NC2=NCC(=O)N2Cc2ccccc2)c(C)c1 was read as YopH PTP inh -6.5, Arbovirus anti -1.1, Mtb betalactam -10.3 and Mtb growth 4.5%.
COc1cc(C2N(Cc3ccccc3)CCN2Cc2ccccc2)ccc1OC(C)=O was read as Mtb betalactam 21.8 and RecA splice inh 1.6.
`COc1ccc(C=Nc2cccc3ncccc23)cc1` gave Arbovirus anti 2.4, Mtb betalactam -0.8, Mtb growth 8.3% and RecA splice inh -3.8.
`CC(C)OC(=O)C(=O)NNc1ccccc1` gave YopH PTP inh -10.7, Arbovirus anti -33.5, Mtb betalactam 90.5, Mtb growth inconclusive and RecA splice inh -5.9.
CC(C)(C)NC(=O)C(c1ccco1)N(C(=O)c1csnn1)c1ccccc1 (stereo unspecified) was read as YopH PTP inh -35.2, Arbovirus anti 4.9, Mtb betalactam -6.2, Mtb growth -2.4% and RecA splice inh 3.8.
COc1cc(C2Nc3ccc4ncccc4c3C3=C2C(=O)CC(C)(C)C3)cc(OC)c1O (stereo unspecified) was read as YopH PTP inh 4.2, Arbovirus anti 0.1, Mtb betalactam -0.6, Mtb growth 6.1% and RecA splice inh -3.9.
CSc1nc(N)c2c(n1)OC(N)=C(C#N)C2c1cccnc1 (stereo unspecified) was read as Arbovirus anti -1.4, Mtb betalactam -1.5, Mtb growth -8.8% and RecA splice inh 1.5.
`COCC(C)NS(=O)(=O)c1ccccc1` (stereo unspecified) gave Arbovirus anti 6.8, Mtb betalactam -4.7, Mtb growth -7.7% and RecA splice inh 1.7.
Cc1cc([N+](=O)[O-])ccc1NCc1ccc2c(c1)OCCO2 was read as Mtb betalactam 7.4 and RecA splice inh 5.0.
Screening CCC1CCCCN1CCCNC(=O)C1CCC(CNS(=O)(=O)c2c(C)cc(C)cc2C)CC1 (stereo unspecified) returned Mtb betalactam -5.5 and RecA splice inh 0.2.
`CCOc1ccc(OCc2nnc(SCC(=O)NC3CCS(=O)(=O)C3)n2-c2ccc(Cl)cc2)cc1` (stereo unspecified) gave YopH PTP inh -16.8, Arbovirus anti 7.3, Mtb betalactam -6.6, Mtb growth 2.8% and RecA splice inh -0.7.
For Cc1ccc(Cl)c2c1=NC(=O)C=2c1[nH]c(=S)[nH]c1O the results were Arbovirus anti 4.4, Mtb betalactam -3.3, Mtb growth -6.5% and RecA splice inh -4.4.
Screening O=C(CCSCc1ccccc1F)NCCc1ccccc1 returned Arbovirus anti 14.3, Mtb betalactam 3.1, Mtb growth -5.9% and RecA splice inh 0.1.
For CCOc1ccc(C(=O)NC2CCN(S(=O)(=O)CC)CC2)cc1 the results were YopH PTP inh -45.3, Arbovirus anti 3.6, Mtb betalactam -0.3, Mtb growth -5.7% and RecA splice inh -1.7.
Cc1ccc(NC(=O)CSCC(=O)Nc2ccc(S(=O)(=O)N3CCOCC3)cc2)cc1 was read as Mtb betalactam -1.6 and RecA splice inh 2.4.
`N#Cc1c(N)n(CCOC(=O)c2cccc([N+](=O)[O-])c2)c2nc3ccccc3nc12` gave YopH PTP inh -36.4, Arbovirus anti -1.2, Mtb betalactam -6.3, Mtb growth -0.8% and RecA splice inh 3.3.
`Cc1ccc(OCCNS(=O)(=O)c2cccs2)cc1` gave YopH PTP inh -8.8, Arbovirus anti -2.8, Mtb betalactam 6.2, Mtb growth 7.0% and RecA splice inh 7.0.
O=C1/C(=C/c2ccc(O)c(O)c2)SC(=S)N1Nc1ccccc1 was read as Arbovirus anti -18.7, Mtb growth 0.5% and RecA splice inh 0.6.
Screening CN(C)CCn1c(=S)[nH]c2ccc(Cl)cc2c1=O returned Arbovirus anti 10.5, Mtb betalactam -15.2, Mtb growth -2.5% and RecA splice inh 0.7.
For COc1ccc(CC(=O)Nc2ccc(-c3nnc(-c4ccc(C)cc4)o3)cc2)cc1 the results were YopH PTP inh -1.9, Arbovirus anti -16.1, Mtb betalactam 18.4 and RecA splice inh -0.8.
For COC(=O)N/N=C/c1cc(Cl)cc(Cl)c1OCc1ccccc1 the results were YopH PTP inh -16.7, Arbovirus anti -3.2, Mtb betalactam -3.5, Mtb growth 0.1% and RecA splice inh -8.5.
Screening COc1ccc(C(=O)Nc2cccc(C)c2)cc1S(=O)(=O)N1CCOCC1 returned YopH PTP inh -25.1, Arbovirus anti 3.0, Mtb betalactam 1.0, Mtb growth 1.3% and RecA splice inh -1.4.
`CC12CCC3C(CC=C4CC(O)CCC43C)C1C/C(=C\N1CCCC1)C2=O` (stereo unspecified) gave Mtb growth -4.6% and RecA splice inh 2.2.
c1ccc(Cn2nnnc2CN2CCCC2)cc1 was read as YopH PTP inh -16.8, Arbovirus anti -2.8, Mtb betalactam 4.6, Mtb growth -8.6% and RecA splice inh 0.0.
`Cc1cc(C)c(S(=O)(=O)N2CCCC(C(=O)NCc3ccccn3)C2)c(C)c1` (stereo unspecified) gave Mtb betalactam -6.8 and RecA splice inh 2.1.
For COCCCn1c(=O)c2sccc2n2c(CCCC(=O)N3CCN(c4ccccn4)CC3)nnc12 the results were Mtb betalactam 0.6 and RecA splice inh -1.6.
For Cc1ccc(-c2nnc(Nc3ccc(C(=O)N(C)C)cc3)c3ccccc23)cc1S(N)(=O)=O the results were Mtb betalactam 7.9 and RecA splice inh -0.5.
For CCN(CC(=O)NCc1cccs1)C(=O)C1CC(=O)N(c2ccc(OC)cc2OC)C1 (stereo unspecified) the results were Mtb betalactam 0.2 and RecA splice inh -1.6.
Screening Cc1cc(C)c(NC(=O)CSc2nc3[nH]ncc3c(=O)[nH]2)c(C)c1 returned Arbovirus anti -0.8, Mtb betalactam -0.9, Mtb growth -1.5% and RecA splice inh -3.0.
`CCOc1ccccc1N1CCN(C(=O)c2ccc(OCC(=O)N3CCOCC3)c(OC)c2)CC1` gave Mtb betalactam -22.5 and RecA splice inh -1.9.
`O=[N+]([O-])c1cc(C(F)(F)F)ccc1NCCNC(=S)Nc1ccc(Cl)cc1` gave YopH PTP inh -27.4, Arbovirus anti -37.4, Mtb betalactam 75.4, Mtb growth 16.5% and RecA splice inh 11.0.
`CCN1CCS/C1=C\C=C\C1=[N+](CC)CCS1` gave Arbovirus anti -0.8, Mtb growth -4.7% and RecA splice inh -6.3.
For COc1nc(N(C)S(=O)(=O)c2ccc(C)cc2)nc(C)c1Cl the results were YopH PTP inh -33.0, Arbovirus anti -18.4, Mtb betalactam -4.7, Mtb growth -7.1% and RecA splice inh -2.8.
Screening O=C(Cn1c(=O)cnc2ccccc21)NC1CCC(O)CC1 (stereo unspecified) returned Mtb betalactam -8.0 and RecA splice inh -2.6.
`Cc1cccc(N=Cc2cc(Br)cc(Cl)c2O)c1` gave Arbovirus anti -2.1, Mtb betalactam -6.7, Mtb growth -7.4% and RecA splice inh 3.1.
For CCCCP(=O)(CCCC)Cc1ccccc1 the results were YopH PTP inh -18.2, Arbovirus anti -1.5, Mtb betalactam -6.7, Mtb growth -2.0% and RecA splice inh -0.8.
Screening Cc1ccccc1NC(=O)C1CCCN(S(=O)(=O)c2cccc3cccnc23)C1 (stereo unspecified) returned YopH PTP inh -3.7, Arbovirus anti 2.6, Mtb betalactam 2.7, Mtb growth -2.2%, RecA splice inh -0.9 and Arbovirus anti repeat 2.5.
CCCCc1nc2cc(C(=O)NCCc3c(C)n[nH]c3C)ccc2o1 was read as Mtb betalactam -21.9 and RecA splice inh 8.3.
For COc1ccccc1N1CCN(C(=S)Nc2ccccc2)CC1 the results were Mtb betalactam 0.9 and RecA splice inh 1.3.
CCN1CCc2c(sc(NC(=O)c3ccc(C(=O)c4ccccc4)cc3)c2C(N)=O)C1 was read as Mtb betalactam 7.2 and RecA splice inh 0.4.
For Cc1nn(-c2ccccc2)c(C)c1NS(=O)(=O)c1ccccc1 the results were YopH PTP inh -0.5, Arbovirus anti 10.9, Mtb betalactam -4.8, Mtb growth -0.4% and RecA splice inh 4.0.
`Cc1cccc(NC(=O)COC(=O)c2ccc3c(c2)OCO3)c1C` gave Arbovirus anti 1.6, Mtb betalactam 3.8, Mtb growth 5.9% and RecA splice inh 2.7.
`COc1ccccc1-n1c(-c2cccnc2)n[nH]c1=S` gave YopH PTP inh -34.6, Arbovirus anti 11.1, Mtb betalactam -9.8, Mtb growth 0.3% and RecA splice inh 0.5.
Cc1cccc(S(=O)(=O)N/N=c2\sc3ccccc3n2C)c1 was read as Arbovirus anti 1.4, Mtb betalactam -15.0, Mtb growth 2.3% and RecA splice inh -2.4.
For COc1ccccc1Cn1cccc1C=O the results were Arbovirus anti -3.7, Mtb betalactam 0.0, Mtb growth -4.7% and RecA splice inh -4.5.
C=CCNC(=O)NC(=O)COC(=O)C(C)Oc1ccc(Cl)cc1Cl (stereo unspecified) was read as Arbovirus anti 4.0, Mtb betalactam 3.7, Mtb growth -7.0% and RecA splice inh 0.6.
Screening COc1ccc(NS(=O)(=O)c2ccc(NC(=S)NCC3CCCO3)cc2)cc1 (stereo unspecified) returned Mtb betalactam -4.9 and RecA splice inh -3.4.

By substructure, the compounds so far containing bromine
O=C(/C=C/c1ccc(Br)cc1)N1CCN(c2cccc(C(F)(F)F)c2)CC1 was read as YopH PTP inh -17.1, Arbovirus anti -16.8, Mtb betalactam 90.9, Mtb growth 6.5% and RecA splice inh 4.5.
`Cc1cccc(N=Cc2cc(Br)cc(Cl)c2O)c1` gave Arbovirus anti -2.1, Mtb betalactam -6.7, Mtb growth -7.4% and RecA splice inh 3.1.
